# High-throughput results from PubChem.
# TRPML1 ag: qHTS for Agonists of the Human Mucolipin Transient Receptor Potential 1 (TRPML1); Mucolipin-1 (Homo sapiens), Q9GZU1; TRPML1-expressing cells, Ca2+ dye fluorescence, FDSS; host cell line not named in the record; reference of the full effect not given here; activation, % (no concentration beside the values); 410,000 tested, 0.12% active; in the data active = activation above about 50%; inconclusive = about 30% to 50%; inactive = below about 30%; note: 0% is about no effect; the text of the record puts the active cut at 80%
#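 Kinetic FDSS Ca2+ read in Tet-induced TRPML1-DL cells (ABD Ca8 dye plus quencher, 45-90 min RT loading): baseline, then compound, then 110 s agonist window; EC80 agonist 54-4 at 4uM final added afterwards for a 110 s antagonist window.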
# D2 PAM: Beta-Arrestin HTS for Positive Allosteric Modulators of the Human D2 Dopamine Receptor: Potentiators | D(2) dopamine receptor (Homo sapiens), P14416 | DiscoveRx D2 beta-arrestin cells, luminescence, 90 min; 100% = 57 uM dopamine signal | potentiation, % (no concentration beside the values) | 360,000 tested, 0.23% active | AID 624464, 2012; active = potentiation of 50% or more; inconclusive = 30% to 50%; inactive = 30% or less;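 note: compound concentration not given in the record; tested on top of an EC20 dose of dopamine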
# Target sequence (P14416 whole entry, looked up): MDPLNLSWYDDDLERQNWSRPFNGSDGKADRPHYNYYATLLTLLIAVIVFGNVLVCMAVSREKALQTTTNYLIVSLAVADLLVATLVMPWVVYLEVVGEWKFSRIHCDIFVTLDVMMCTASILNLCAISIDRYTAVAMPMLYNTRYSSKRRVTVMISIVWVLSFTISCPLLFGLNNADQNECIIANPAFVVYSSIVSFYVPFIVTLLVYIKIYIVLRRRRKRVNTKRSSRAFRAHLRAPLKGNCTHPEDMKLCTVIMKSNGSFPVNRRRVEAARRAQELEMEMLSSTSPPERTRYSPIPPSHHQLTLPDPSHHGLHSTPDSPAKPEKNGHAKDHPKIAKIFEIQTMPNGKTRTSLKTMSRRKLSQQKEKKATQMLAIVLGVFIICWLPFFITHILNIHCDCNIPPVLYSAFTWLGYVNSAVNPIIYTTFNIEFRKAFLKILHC
#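 PathHunter D2 cells, attached overnight at 37 deg C, received compound in DMSO plus dopamine at EC20 (50 nM final) for 90 min at 37 deg C. Beta-arrestin recruitment was read as luminescence after 1 h with detection reagent at ambient temperature.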
# D2 ag: Beta-Arrestin HTS for Positive Allosteric Modulators of the Human D2 Dopamine Receptor: Agonists; D(2) dopamine receptor (Homo sapiens), P14416; DiscoveRx PathHunter D2 beta-arrestin, luminescence, 90 min; 100% = 57 uM dopamine signal; activation, % (concentration not given with the values); 360,000 tested, 0.084% active; AID 624465, 2012; in the data active = activation above about 40%; inconclusive = about 15% to 40%; inactive = below about 15%; note: compound concentration not given in the record; the text of the record calls up to 30% inactive
#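 DiscoveRx PathHunter D2 beta-arrestin cells (2,100/well) attached overnight, then compound-stimulated 90 min at 37 C in HBSS/10 mM HEPES/0.1% Tween-20 buffer; beta-galactosidase complementation read by luminescence after 1 h at ambient temperature. Dopamine 57 uM final (EC100) as control.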
# TRPML1 inh: qHTS for Inhibitors of the Human Mucolipin Transient Receptor Potential 1 (TRPML1); Mucolipin-1 (Homo sapiens), Q9GZU1; AID 624415, 2012; activity change, negative = inhibition, % (no concentration beside the values); TRPML1-inducible cells, Ca2+ dye fluorescence, FDSS; stronger effect = lower value; inhibition of EC80 agonist-evoked calcium signal; 390,000 tested, 0.02% active; in the data active means activity change below about -50%; inconclusive means about -30% to -50%; inactive means above about -30%;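 note: stimulus is agonist 54-4 at its EC80 concentration; % is set by controls: 0 for no effect and ±100 for the full control effect; compound concentration not given in the record; the text of the record puts the active cut at -80%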
#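 Calcium fluorescence in TRPML1-DL cells induced overnight with Tet: a 110 s read after compound pin addition, then a 110 s antagonist read after challenge with 54-4 at 4 uM final (EC80).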
# PINK1 modulator: A Quantitative High throughput Screen to Identify Chemical Modulators of PINK1 Expression. PINK1 immunofluorescence, high-content cytometry, 24 h. Potency, µM (highest dose often 76.6 µM), inactives show top-dose activation (PINK1 increase), actives largely listed as activators. 410,000 tested, 0.2% active; active = well fitted activation curve with a large enough effect; inconclusive = small, poorly fitted or top-dose-only effect; inactive = flat fitted curve, though single readings scatter; cell line not stated here;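 note: potency is the fitted concentration of half-maximal effect; % of control where 0% means no effect; nearly all actives have a fitted effect of over 65% in size; a mitochondrial uncoupler was the plate control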
#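 PINK1 protein, normally rapidly degraded, was detected by immunofluorescence after 24 hour compound treatment of a stable cell line. Titration data (5 concentrations) came from laser-scanning cytometry, with CCCP-treated wells as controls.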
# Six1-Eya2 blk: qHTS Assay for Inhibitors of the Six1/Eya2 Interaction; Homeobox protein SIX1 (Homo sapiens) + Protein phosphatase EYA2 (Homo sapiens), …; AlphaScreen GST-Six1/His-Eya2 binding, biochemical; stronger effect = lower value; control for the full effect not named in the record; activity change, % (test concentration not listed); 360,000 tested, 0.56% active; AID 651725, 2012; in the data active = activity change below about -65%; inconclusive = about -30% to -65%; inactive = above about -30%; note: % is set by controls: 0 for no effect and ±100 for the full control effect; compound concentration not given in the record
#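 Homogeneous AlphaScreen proximity assay pairing GST-Six1 with His-tagged Eya2 (added as 5X mix: 250 nM and 500 nM) in 50 mM Tris pH 8.0, 300 mM NaCl, 1 mM TCEP. Glutathione donor and nickel acceptor beads; 1 h, 37 °C, dark.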
# * = called active by the depositor; x = not tested or not shown.
SMILES,TRPML1 ag,D2 PAM,D2 ag,TRPML1 inh,PINK1 modulator,Six1-Eya2 blk
CC1CN(S(=O)(=O)c2cn(C)c(=O)n(C)c2=O)CC(C)O1 (stereo unspecified),-0.2,-6,-4.5,-8,0.6%,5
CCOc1cc(NC(=S)NCC2CCCO2)c(OCC)cc1NC(=O)c1ccccc1F (stereo unspecified),0.7,2,-4.2,30,1.1%,-23
COc1ccc(C)cc1NC(=O)C(Cc1ccccc1)NS(=O)(=O)c1cccs1 (stereo unspecified),1.5,x,x,-6,-4.2%,x
COc1cccc(NC(=O)c2oc3ccccc3c2NC(=O)c2ccc(OC(C)C)cc2)c1,0.1,x,x,28,-0.9%,x
Cn1cccc1Cc1nnc(SCC(=O)N2CCc3ccccc32)n1CCc1ccccc1,0.5,-2,2.6,4,0.8%,-20

# 3 structures already listed, arranged by heavy-atom count, lowest first.
SMILES,TRPML1 ag,D2 PAM,D2 ag,TRPML1 inh,PINK1 modulator,Six1-Eya2 blk
COc1ccc(C)cc1NC(=O)C(Cc1ccccc1)NS(=O)(=O)c1cccs1 (stereo unspecified),1.5,x,x,-6,-4.2%,x
CCOc1cc(NC(=S)NCC2CCCO2)c(OCC)cc1NC(=O)c1ccccc1F (stereo unspecified),0.7,2,-4.2,30,1.1%,-23
COc1cccc(NC(=O)c2oc3ccccc3c2NC(=O)c2ccc(OC(C)C)cc2)c1,0.1,x,x,28,-0.9%,x

# An excerpt from above with just TRPML1 inh, Six1-Eya2 blk and TRPML1 ag:
structure	TRPML1 inh	Six1-Eya2 blk	TRPML1 ag
COc1ccc(C)cc1NC(=O)C(Cc1ccccc1)NS(=O)(=O)c1cccs1 (stereo unspecified)	-6	x	1.5
COc1cccc(NC(=O)c2oc3ccccc3c2NC(=O)c2ccc(OC(C)C)cc2)c1	28	x	0.1

# Not a hit list, and some 1% of all compounds hit somewhere here.
